# AID504770 – growth inhibitors of E. coli YBA685 in a screen for V. cholerae RctB (chromosome II replication) inhibitors | E. coli YBA685 rctB-dependent plasmid, OD600 growth, 3 h; hits give low values | 130,000 tested, 0.27% active | z-score (concentration not given with the values);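 active means z-score under -2 on both plates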;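 further: wells of about 30 µL received 100 nL stock; score is relative to mean and SD of the test wells; the first replicate is given; strong numbers were not always called active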
# Ba CapD inh – inhibitors of Bacillus anthracis CapD enzyme | z-score (test concentration not listed) | 140,000 tested, 0.23% active | purified CapD enzyme, fluorescence intensity read-out; hits give low values; some hits fall short of the stated cut;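 active means z-score under -4 in either of two replicates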;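 further: stock transfer was 100 nL into about 40 µL; score is relative to mean and spread of the plate; one replicate is shown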
# Starred values were filed as active, the others as inactive; x = no result given; & = joins results of further samples; ! = a repeat was not active.
# The first three entries, to show the layout:
No.	compound	AID504770	Ba CapD inh
1	CC1Cc2ccccc2N1C(=O)CN(C)CC(=O)Nc1ccc(OC(F)(F)F)cc1 (stereo not drawn)	0	x
2	CN(C(=O)CSc1nc2ncccc2[nH]1)c1ccccc1	-0.95	2.41
3	COc1ccc(C2=NN3C(C2)c2cc(OC)ccc2OC3c2ccccc2Cl)cc1 (stereo not drawn)	x	0.43

# The whole of this part, from the first entry:
No.	compound	AID504770	Ba CapD inh
1	CC1Cc2ccccc2N1C(=O)CN(C)CC(=O)Nc1ccc(OC(F)(F)F)cc1 (stereo not drawn)	0	x
2	CN(C(=O)CSc1nc2ncccc2[nH]1)c1ccccc1	-0.95	2.41
3	COc1ccc(C2=NN3C(C2)c2cc(OC)ccc2OC3c2ccccc2Cl)cc1 (stereo not drawn)	x	0.43
4	c1ccc(Sc2ccc(-c3[nH]c(-c4ccccc4)nc3-c3ccccc3)cc2)cc1	x	0.52
5	COc1ccc(/C=C2/SC(=O)N(CCCC(=O)Nc3ccccc3O)C2=O)cc1	0.8	x
6	Cc1cc(C)cc(Oc2c(C)oc3c(CN4CCC(C)CC4)c(O)ccc3c2=O)c1	0.5	22.8
7	CC(N)CCCC(C)(C)O (stereo not drawn)	0	-4.07*!
8	CCOC(Cn1c(-c2ccc(OC)cc2)nc2ccccc21)OCC	2	0.335
9	C=CCc1ccccc1OCC(N)=O	-1	-0.16
10	COC(=O)CCNc1n[nH]c(=O)[nH]c1=O	1.1	-0.025
11	COc1cccc(C(=O)Nc2ccc(S(=O)(=O)Nc3nc(C)cc(C)n3)cc2)c1	x	0.035
12	COc1ccccc1-c1cc(=O)n(CC(=O)O)c2c1CCCC2	0.05	-2.12
13	COc1ccc(N=CC23c4ccccc4C(c4ccccc42)C2C(=O)N(c4ccccc4Cl)C(=O)C23)cc1 (stereo not drawn)	x	6.49
14	Cc1ccc(NC(=O)CN2C(=O)C3(OCCCO3)c3ccccc32)cc1C	-1.45	-0.68
15	CN(C)c1cccc(C(=O)OCc2cc(Cl)cc3c2OCOC3)c1	-1.25	x
16	CCC(C)c1ccccc1NC(=O)CNc1ccc(F)cc1 (stereo not drawn)	0.3	0.39
17	CCOc1cc(C2C(C#N)=C(N)OC(COC)=C2C(=O)OC)cc([N+](=O)[O-])c1OC(=O)N1CCOCC1 (stereo not drawn)	x	-0.75
18	Cc1nnc(SC2CCN(S(=O)(=O)c3cccc(C(F)(F)F)c3)CC2)s1	0.95	-0.275
19	Cc1c(C#N)c(N)nc(SCC(N)=O)c1C#N	0.3	5.29
20	Cc1ccc(-c2cc(C(=O)N(C)Cc3c(C)nn(C)c3C)c3cc(Br)ccc3n2)cc1	-0.45	-0.155
21	O=C(C[n+]1ccc(/C=N/O)cc1)Nc1ccc(C(=O)O)cc1	-0.85	-0.245
22	Cc1oc(C(=O)O)cc1CSC(C)C(=O)O (stereo not drawn)	0.05	x
23	CC(C)(C)c1nc2sc3c(c2c(=O)o1)CCCC3	2.3	0.24
24	COc1ccc(/C=C2/SC(=O)N(CC(=O)NN3CCN(C)CC3)C2=O)cc1OC	x	-0.24
25	CCCCn1c(=O)nc2n(-c3ccc(Cl)cc3)c3ccccc3cc-2c1=O	x	0.035
26	O=C(O)c1[nH]c2ccccc2c1Br	0.35	0.31
27	Cc1nn(C)c(Oc2ccccc2)c1CCNS(=O)(=O)c1ccccc1	x	0.21
28	COc1ccccc1NC(=O)COC(=O)C1(c2ccc(F)cc2)CCCC1	0.55	0.77
29	CC1CCCC(C)N1CCC(=O)NN (stereo not drawn)	0.8	x
30	CCOC(=O)CSc1ncnc2c1oc1ccccc12	2.05	-0.32
31	COc1cc(NS(=O)(=O)c2ccc3c(c2)CCN3C(=O)CCC(=O)O)c(C(=O)O)cc1OC	0.35	-4.28*
32	O=C1C2C3C=CC(O3)C2C(=O)N1c1ccc(F)cc1 (stereo not drawn)	x	1.29
33	Cc1noc(NS(=O)(=O)c2ccc(NC(=O)c3ccccc3)cc2)c1C	-0.7	x
34	C=CCn1c(SCC(=O)N2CC(C)CC(C)C2)nc2ccccc2c1=O (stereo not drawn)	-0.3	x
35	COc1ccc(S(=O)(=O)NCc2ccccc2OC)cc1	x	-1.03
36	COc1cccc(CN2CCC(NC(=O)CC3Cc4ccccc4C3)C2)c1[N+](=O)[O-] (stereo not drawn)	x	-0.56
37	COc1ccc2oc(=O)cc(O)c2c1	-0.95	4.46
38	CSc1nc(C)nc(-n2cccc2)c1C#N	0.45	0.475
39	CC(C)(C)C(=O)Nc1nsc(-c2ccccc2)n1	0.45	0.315
40	O=C(O)c1cccc(/C=N/O)c1O	-0.05	63.4

# Compounds from the list above that have a CF3 group, in the order listed:
No.	compound	AID504770	Ba CapD inh
1	CC1Cc2ccccc2N1C(=O)CN(C)CC(=O)Nc1ccc(OC(F)(F)F)cc1 (stereo not drawn)	0	x
18	Cc1nnc(SC2CCN(S(=O)(=O)c3cccc(C(F)(F)F)c3)CC2)s1	0.95	-0.275

# More results follow:
No.	compound	AID504770	Ba CapD inh
41	CCN(C(=O)CSc1ncn[nH]1)c1ccccc1	0.7	x
42	C=CCn1c(N2CCCC2)nc2c1c(=O)[nH]c(=O)n2C	-0.8	-0.065
43	COc1ccc(C(CC(=O)Nc2cc(OC)cc(OC)c2)n2cccc2)cc1 (stereo not drawn)	-0.55	9.25
44	NNC(=O)C(Sc1n[nH]c(=O)[nH]c1=O)c1ccccc1 (stereo not drawn)	-2.5	x
45	O=S(=O)(c1cccc(C(F)(F)F)c1)N1CCOCC1	0.4	0.335
46	CCc1ccc(OCc2nc(-c3ccncc3)no2)c(Br)c1	1.75	-0.06
47	CC[C@@H](CO)NC(=O)[C@@H]1C=C2c3cccc4[nH]cc(c34)C[C@H]2N(C)C1	-0.7	0.955
48	Cc1nc(SCC(=O)c2ccc(Cl)cc2)c(C#N)c(C)c1C	-1.1	-0.91

# The last two entries of the section before open the next one.
No.	compound	AID504770	Ba CapD inh
47	CC[C@@H](CO)NC(=O)[C@@H]1C=C2c3cccc4[nH]cc(c34)C[C@H]2N(C)C1	-0.7	0.955
48	Cc1nc(SCC(=O)c2ccc(Cl)cc2)c(C#N)c(C)c1C	-1.1	-0.91
49	Cc1ccc(-c2cnc3ccccc3[n+]2C)c(C)c1	x	6.44
50	COCCNC(=O)c1ccc([N+](=O)[O-])c(-c2cnn(C(C)C)c2)c1	x	-0.96
51	O=C(OC1CCOC1=O)c1cccnc1Nc1cccc(C(F)(F)F)c1 (stereo not drawn)	1.65	x
52	O=C1/C(=C/C2CCCO2)CC/C1=C\C1CCCO1 (stereo not drawn)	1.8	-2.59
53	O=C(NCCc1ccccc1)c1cc(N2CCCCC2)nc2ccccc12	x	0.905
54	COc1ccc(C2NC(=O)Cc3cc(OC)c(OC)cc32)cc1 (stereo not drawn)	-0.75	0.365
55	O=C(O)c1ccc(S(=O)(=O)Nc2ccc3oc4c(c3c2)CCCC4)cc1	1.5	-0.385
56	CCOc1cc(C2NC(=O)N(C)C(C)=C2C(=O)OCCc2ccccc2)cc(Br)c1O (stereo not drawn)	x	-0.505
57	O=C1CSC(=Nc2cccc(C(=O)O)c2)N1	0.45	x
58	CCOc1ccc(C(=S)N(C)C)cc1	0.7	-0.155
59	COC(=O)C1CC(O)CN1c1nc(-c2ccccc2)nc2ccccc12 (stereo not drawn)	-0.2	x
60	C=Cc1c(C)/c2[n-]/c1=C\c1[n-]c(c(CC)c1C)/C=c1\[n-]c3c(c1C)C(=O)C(C(=O)[O-])C=3c1[n-]c(c(C)c1CCC(=O)[O-])\C=2.[Cu].[Na+].[Na+] (stereo not drawn)	0.3	x
61	CC(C)(C)C(=O)[C@@H]1[C@@H](c2cccs2)C(C#N)(C#N)[C@H]2C=Cc3ccccc3N12	x	5.93
62	CS(=O)(=O)c1ccc(C(=O)N(Cc2cc3cccc4c3n(c2=O)CCC4)c2cccc(C(F)(F)F)c2)cc1	x	-0.465
63	CSc1nnc2c(n1)OC1(Nc3ccccc3-2)C(=O)Nc2ccc(Br)cc21 (stereo not drawn)	x	-0.735
64	CN(C(=O)COn1nnc2ccccc21)C1CCCCC1	-1.1	x

# A stretch from further up, as a working copy:
No.	compound	AID504770	Ba CapD inh
1	CC1Cc2ccccc2N1C(=O)CN(C)CC(=O)Nc1ccc(OC(F)(F)F)cc1 (stereo not drawn)	0	x
2	CN(C(=O)CSc1nc2ncccc2[nH]1)c1ccccc1	-0.95	2.41

# More entries
No.	compound	AID504770	Ba CapD inh
65	Nc1nc(CSc2nc3ncccc3[nH]2)nc(N2CCCCC2)n1	x	0.685
66	O=c1oc(-c2cccc(Br)c2)nc2scc(-c3ccccc3)c12	x	1.02
67	C/C(=C\C(=Nc1ccccc1O)c1ccccn1)c1ccccn1	0.05	-0.09
68	CN(CCNS(=O)(=O)c1ccc(-c2cc(C(F)(F)F)no2)s1)C1CCCCC1	1	-0.6
69	Cc1cccc(/C=c2\sc3n(c2=O)C(N)=C(C#N)C(c2cccc(C)c2)C=3C#N)c1 (stereo not drawn)	x	-0.335
70	COc1ccc(C2=N/C(=C/c3ccc(OC(C)=O)cc3)C(=O)O2)cc1Br	x	0.89
71	COC(=O)C1=C(C)N(c2ccc(C)cc2)/C(=C/c2ccc(OC)cc2)C1=O	0.3	-0.27
72	CCN1CCN(C(=O)c2cc(Nc3ccccc3)nc3ccccc23)CC1	2.25	-0.89
73	CN(CCc1ccccn1)C(=O)CC1(CC(=O)O)CCCC1	0	-0.945
74	O=C(Nc1ccc([N+](=O)[O-])cc1)C(Cc1ccccc1)N1C(=O)C2C3c4ccccc4C(c4ccccc43)C2C1=O (stereo not drawn)	x	-0.25
75	O=C1C2C3C=CC(C3)C2C(=O)N1CCOCc1ccccc1 (stereo not drawn)	0.6	0.54
76	c1ccc(-c2cc(NCC3CC3)n3cnnc3n2)cc1	-0.85	17.6
77	NC(=O)C1CCN(C(=O)c2ccc3c(c2)nc(SCc2cc(=O)n4cc(Cl)ccc4n2)n2c4ccccc4nc32)CC1	x	-0.08
78	CCOC(=O)c1ccc(-c2ccc(/C=C3/C(=O)ON=C3C)o2)cc1	-0.3	15.8
79	O=S(=O)(Nc1nccs1)c1ccc(Nc2nnc(-c3ccc(Cl)cc3)c3ccccc23)cc1	x	0.075
80	CCOc1cc(/C=C2\C(=O)Nc3ccc(Br)cc32)ccc1OCC(=O)O	-0.9	-0.42
81	N#CC1=C(N)c2ccccc2CC12CCCCC2	0.8	x
82	CCCNC(=O)c1ccc(N2C(=O)c3ccccc3C2=O)cc1	0.45	x
83	O=C(COc1ccccc1)Nc1sc2c(c1C(=O)NCC1CCCO1)CCCC2 (stereo not drawn)	0.75	-0.025
84	N#Cc1c(N)nc(Sc2ccc(Cl)cc2)c(C#N)c1-c1cccs1	-1	3.59
85	O=c1c2ccccc2[se]n1-c1ccccc1	x	-0.415&0.145
86	O=C(O)c1cccnc1SC1CC(=O)N(c2ccc(OC(F)(F)F)cc2)C1=O (stereo not drawn)	x	-0.295
87	Nc1nc2nc(N3CCOCC3)[nH]c2c(=O)[nH]1	1.4	-0.24
88	CCN(CC)OC(=O)c1c(-c2c(Cl)cccc2Cl)noc1C	0.7	-0.08
89	CC1(C)Cc2ccccc2C(CSc2nnc3c(n2)[nH]c2ccccc23)=N1	0.05	-0.95
90	CC1=C(C(=O)OC(C)C)C(c2cccc(Cl)c2)C(C#N)=C(N)O1 (stereo not drawn)	x	0.51
91	CON(C)C(=O)c1nc(-c2ccccc2)oc1C(F)(F)F	x	-0.345
92	COc1ccc(C2CC(c3ccccc3)=NN2C(=O)c2ccccc2)cc1 (stereo not drawn)	x	0.585
93	CCOC(=O)c1ccc(N2C(=O)CC(NC(C)(C)C)C2=O)cc1 (stereo not drawn)	-0.15	x
94	O=C(CNC(=O)c1ccccc1)NCC1COc2ccccc2O1 (stereo not drawn)	-0.45	x
95	O=C1N(Cc2ccccc2)C(c2cccc(F)c2)C1(F)F (stereo not drawn)	-0.25	x
96	COC(=O)C1=CN(C(C)C)C=C(C(=O)OC)C1c1ccc2c(c1)OCO2	0.55	94
97	COc1cc(/C=C/C(=O)N2CCc3ccccc3C2)cc(OC)c1OC	-1.25	8.78
98	CCC(=O)N1c2ccccc2NC2=C(C(=O)CC(C)(C)C2)C1c1ccccn1 (stereo not drawn)	0.05	x
99	COc1ccc(S(=O)(=O)N(C2CC2)C2CCN(Cc3ccccc3)CC2)cc1	x	-0.42
100	CCc1c(C#N)c(N)nc(SCC(=O)c2ccc(Cl)c(Cl)c2)c1C#N	x	-0.095
101	CCNc1nc(NCC)n2c(=S)n(CN3CCOCC3)nc2n1	-1.7	x
102	O=C(CNc1cccc(C(F)(F)F)c1)NN1C(=O)NC2(CCCCC2)C1=O	0.75	x
103	CN(C)c1ccc(Nc2nc(-c3cccnc3)nc3ccccc23)cc1	-1	-2.2
104	CC1(C)CN(c2cccc(-c3ccnc4ncnn34)c2)C1=O	0.7	0.72
105	O=C(O)COc1ccc2oc(=O)c3c(c2c1)CCC3	-0.3	x
106	CC12CN(C(=O)c3cccs3)CC(C)(CN(C(=O)c3cccs3)C1)C2=O	-1.15	-0.18
107	COc1ccc2c(CC(=O)O)coc2c1	-1.55	-0.24
108	CCC(C)NC(=O)CSc1ccc(Cl)cc1 (stereo not drawn)	0.6	0.42
109	CC1CC1C(=O)OCC(=O)Nc1ccccc1C(F)(F)F (stereo not drawn)	-0.75	0.09
110	CSc1ccc(CN(C)CC(=O)NC2(C#N)CCCC2)cc1	0.1	x
111	CCN(CC(=O)Nc1ccccc1OC)C(=O)c1ccc(-n2cccn2)cc1	1.25	x
112	COc1ccc2c(c1)NC(c1cc(Cl)cc(Cl)c1O)c1cccn1-2 (stereo not drawn)	1.85	-0.245
113	Cc1sc(-n2cccc2)c(C#N)c1C	-0.1	-0.21
114	Clc1ccc(C2=CC(c3cccs3)n3c(nc4ccccc43)N2)cc1 (stereo not drawn)	-0.15	-2.09
115	O=C(c1ccccc1)N(CCSCc1cc2cccc3c2n(c1=O)CCC3)Cc1ccccn1	x	-0.14

# Screens from PubChem BioAssay.
